# Screening results (PubChem BioAssay)
# D2 ag: activates the human D2 dopamine receptor; 360,000 compounds, 0.084% hits; DiscoveRx PathHunter D2 beta-arrestin, luminescence, 90 min; 100% = 57 uM dopamine signal; activation, % (concentration not given with the values); P14416; in the data active = activation above about 40%; inconclusive = about 15% to 40%; inactive = below about 15%; also: the text of the record calls up to 30% inactive
#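 DiscoveRx PathHunter D2 beta-arrestin cells (2,100/well) attached overnight, then compound-stimulated 90 min at 37 C in HBSS/10 mM HEPES/0.1% Tween-20 buffer; beta-galactosidase complementation read by luminescence after 1 h at ambient temperature. Dopamine 57 uM final (EC100) as control.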
# Sfp PPTase inh: Sfp phosphopantetheinyl transferase inhibition; Potency, µM, without a hit: max response, negative = inhibition, hits mostly inhibitors; Q9F4F7; 310,000 compounds, 3.5% hits; Biochemical Sfp PPTase activity, qHTS; active = well fitted inhibition curve with a large enough effect; inconclusive = small, poorly fitted or top-dose-only effect, or another doubt; inactive = no such curve, though single readings can be large or run the other way;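 also: the enzyme is Sfp with the accession as filed and its product quenches rhodamine fluorescence; potency is read from the fitted curve at half-maximal effect; 0% = enzyme reaction without inhibitor and -100% = no enzyme wells; top concentration of the series not given in the record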
#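 Buffer: 50 mM Hepes-Na pH 7.6, 10 mM MgCl2, 0.01% Nonidet P-40, 0.01% BSA. Enzyme 15 nM, pre-exposed to compound 15 min; substrates then added and fluorescence change tracked over 30 min.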
# D2 PAM: potentiates the human D2 dopamine receptor allosterically; P14416; DiscoveRx D2 beta-arrestin cells, luminescence, 90 min; 100% = 57 uM dopamine signal; potentiation, % (concentration not given with the values); 360,000 compounds, 0.23% hits; active = potentiation of 50% or more; inconclusive = 30% to 50%; inactive = 30% or less;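 also: tested on top of an EC20 dose of dopamine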
#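 PathHunter beta-arrestin assay in DiscoveRx D2 cells. Compounds were added with an EC20 of dopamine (50 nM final) for 90 min at 37 deg C. Luminescence was read 1 h after detection reagent, with 57 uM dopamine as the EC100 control.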
# TRPV1 potentiator: potentiators of human vanilloid receptor 1 (TRPV1); TRPV1-expressing cells, Fluo-8 calcium influx, capsaicin EC20 potentiation; host cell line not named in the record; control for the full effect not named in the record; potentiation, % at 8.33 µM; 320,000 compounds, 0.02% hits; active means potentiation above 80%; inconclusive means 30% to 80%; inactive means below 30%; also: 0% is about no effect
# Target sequence (Q8NER1 whole entry, looked up): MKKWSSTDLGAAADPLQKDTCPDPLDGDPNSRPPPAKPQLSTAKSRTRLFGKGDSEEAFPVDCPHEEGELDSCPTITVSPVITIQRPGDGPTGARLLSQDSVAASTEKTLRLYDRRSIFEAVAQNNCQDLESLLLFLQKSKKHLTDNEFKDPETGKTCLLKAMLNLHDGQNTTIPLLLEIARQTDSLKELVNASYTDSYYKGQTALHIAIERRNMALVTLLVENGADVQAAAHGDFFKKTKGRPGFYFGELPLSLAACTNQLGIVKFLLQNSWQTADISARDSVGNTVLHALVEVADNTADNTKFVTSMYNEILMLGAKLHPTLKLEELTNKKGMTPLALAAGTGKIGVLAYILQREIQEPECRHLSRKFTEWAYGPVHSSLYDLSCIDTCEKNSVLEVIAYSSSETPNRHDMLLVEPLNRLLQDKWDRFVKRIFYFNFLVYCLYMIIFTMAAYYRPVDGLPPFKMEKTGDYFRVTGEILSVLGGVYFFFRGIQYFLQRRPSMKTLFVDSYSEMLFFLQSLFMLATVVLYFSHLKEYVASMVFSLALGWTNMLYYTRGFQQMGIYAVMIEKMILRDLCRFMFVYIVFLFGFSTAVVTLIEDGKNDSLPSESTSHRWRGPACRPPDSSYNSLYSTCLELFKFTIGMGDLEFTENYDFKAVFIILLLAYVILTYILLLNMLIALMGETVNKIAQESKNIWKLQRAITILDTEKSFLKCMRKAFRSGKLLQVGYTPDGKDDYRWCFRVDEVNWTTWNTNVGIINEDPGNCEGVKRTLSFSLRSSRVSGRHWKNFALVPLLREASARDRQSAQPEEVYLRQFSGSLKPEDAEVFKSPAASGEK
#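 Fluo-8 calcium influx in TRPV1-expressing cells, kinetic read (ex 480/em 520 nm). Compound added and read 3 min for agonist activity, followed by capsaicin at EC20 final and 2 min further read for enhancement.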
# Six1-Eya2 inh: blocks human Six1 binding to Eya2; AlphaScreen GST-Six1/His-Eya2 binding, biochemical; active compounds read low; control for the full effect not named in the record; activity change, % (concentration not given with the values); 360,000 compounds, 0.56% hits; in the data active = activity change below about -65%; inconclusive = about -30% to -65%; inactive = above about -30%; also: % is scaled to controls: 0 for no effect and ±100 for the full control effect
#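 Compounds are tested against tagged Six1 and Eya2 proteins bridged by glutathione donor and nickel acceptor beads; after a one-hour incubation at 37 °C without light, AlphaScreen emission is recorded.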
# CtBP-E1A blk: blocks the CtBP interaction with E1A. AID 651724. activity change, % (no concentration beside the values). 340,000 compounds, 0.49% hits. AlphaScreen GST-E1A/His-CtBP binding, 1536-well; active compounds read low; control for the full effect not named in the record; in the data active means activity change below about -65%; inconclusive means about -30% to -65%; inactive means above about -30%; also: % is scaled to controls: 0 for no effect and ±100 for the full control effect
#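 AlphaScreen with 125 nM GST-E1A and 125 nM His-CtBP (5X stocks) in Tris pH 8.0, 300 mM NaCl, BSA, Tween 20, TCEP. Compounds preincubated 2 h at 37 deg C, then glutathione donor/nickel acceptor beads added for 1 h at 37 deg C in dark.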
# PINK1 modulator: PINK1 expression modulation. PINK1 immunofluorescence, high-content cytometry, 24 h. Potency, µM (top dose mostly 76.6 µM), for inactives: top-dose activation (PINK1 increase), most hits filed as activators. 410,000 compounds, 0.2% hits; active = well fitted activation curve with a large enough effect; inconclusive = small, poorly fitted or top-dose-only effect; inactive = flat fitted curve, though single readings scatter; cell line not stated here;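 also: potency is read from the fitted curve at half-maximal effect; % of control where 0% means no effect; nearly all actives have a fitted effect of over 65% in size; a mitochondrial uncoupler was the plate control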
#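 PINK1 protein level read as immunofluorescence by microplate cytometer in a fixed, stained stable cell line after 24 h exposure to five compound concentrations, with CCCP as control.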
# * marks the source's active call; other numbers are inactive results; u = inconclusive; x = no result given; [ ] = remark or other dose.
# Sample of the layout:
mol	D2 ag	Sfp PPTase inh	D2 PAM	TRPV1 potentiator	Six1-Eya2 inh	CtBP-E1A blk	PINK1 modulator
Cn1c(=O)c2c(nc(CN3CCc4ccccc4C3)n2Cc2ccccc2)n(C)c1=O	-5.7	4.1%	-1.7	21.3	-7.4	-2.3	-0.1%
CCOc1ccccc1NC(=S)NC(=O)c1ccco1	-0.9	-3.6%	-9.8	-12.7	-6.9	-13.2	-0.9%

# The list itself, repeating the preview:
mol	D2 ag	Sfp PPTase inh	D2 PAM	TRPV1 potentiator	Six1-Eya2 inh	CtBP-E1A blk	PINK1 modulator
Cn1c(=O)c2c(nc(CN3CCc4ccccc4C3)n2Cc2ccccc2)n(C)c1=O	-5.7	4.1%	-1.7	21.3	-7.4	-2.3	-0.1%
CCOc1ccccc1NC(=S)NC(=O)c1ccco1	-0.9	-3.6%	-9.8	-12.7	-6.9	-13.2	-0.9%
NS(=O)(=O)c1ccc(CCN=C(NS(=O)(=O)c2cccs2)c2ccccc2)cc1	2.5	28.6%	-4.5	3.9	4.1	2.1	-0.4%
CSCCC(=O)N1CCC(n2nccc2NC(=O)CCCc2ccccc2)CC1	1.3	3.4%	-3.4	-34.1	-4.7	x	1.1%
C/C(=N\NC(=O)c1ccc(Cl)c(Cl)c1)c1ccc(Br)s1	-4.8	0.8%	-10.4	7.7	1.8	-4.7	u
O=C(NCc1cccc(Cl)c1)C1Cc2c(-c3cccc(F)c3)ccnc2O1 (stereo not given)	5.9	x	-1.0	x	-2.4	1.7	5.3%
CC1CC(C)CN(C(=O)C(NS(=O)(=O)c2ccc(Br)s2)c2ccccc2)C1 (stereo not given)	-6.4	u	-2.7	-0.1	6.7	2.1	8.1%
CCN(CC)CCCNc1nc2ccccc2c2[nH]c3ccc(OC)cc3c12	0.0	x	-15.8	x	u	-74.8*	-7.2%
Cc1nc(N[C@@H](Cc2c[nH]c3ccccc23)C(=O)O)c2oc3ccccc3c2n1	0.5	11.6%	-2.7	14.0	-7.7	-2.6	3.0%[38.3 µM]
O=C(Nc1ccccc1)Nc1cccc(C(F)(F)F)c1	10.3	8.1%	-8.3	-8.7	7.3	x	9.1%
CCOC(=O)N1CCN(C(=O)c2c(O)c3cccc4c3n(c2=O)CC4)CC1	-5.4	-3.9%	-1.6	11.2	5.9	-5.5	-0.8%
CC(=O)c1ccc(N2CCN(S(=O)(=O)c3c(C)[nH]c(C)c3C(=O)N3CCCC3)CC2)cc1	-5.8	6.0%	-14.4	7.7	-1.0	-4.8	3.6%
COCCCNC(=O)Cn1ccc(N)nc1=O	-0.5	x	-0.2	-4.6	0.0	0.0	0.9%
O=C(CSc1nnc(-c2ccncc2)o1)Nc1nncs1	2.4	-7.3%	-4.4	2.2	-21.6	-2.4	1.9%
CCn1nc(C)c(CN2CCCC(CNS(=O)(=O)c3ccc(OC)cc3)C2)c1C (stereo not given)	-5.5	9.8%	-23.1	-7.2	24.2	0.0	0.2%
CC1(C)CC(NC(=O)C2CCN(S(=O)(=O)c3ccccc3C(F)(F)F)CC2)CC(C)(C)N1	-3.8	22.6%	-11.9	-3.6	0.7	5.0	0.3%
Cc1ccc(-n2nc3c(=O)n(CC(=O)NCCC4=CCCCC4)nc(C)c3c2C)cc1	-2.7	21.5%	-4.4	0.3	23.5	x	1.5%
[NH-]c1ncnc2c1N=C[N+]2=CC=CCO	-10.0	-13.4%	-0.4	-15.5	1.2	x	0.1%
COC(=O)c1cc(=O)nc(NN=C2c3ccccc3-c3ccccc32)s1	-7.0	x	-0.7	x	-5.8	1.3	3.2%
COc1cc(C2C(C#N)=C(N)N(c3sc4c(c3C#N)CCCC4)C3=C2C(=O)CC(C)(C)C3)cc(OC)c1OC (stereo not given)	-2.1	22.5%	-10.0	-3.8	-2.8	-1.0	16.3%
O=C(Nc1ccc2c(c1)OCO2)c1ccccc1	-5.0	7.8%	-8.0	21.3	9.3	3.5	-1.4%
COc1cc(-c2c(NC(=O)c3ccco3)oc3c(C)cccc3c2=O)cc(OC)c1OC	-2.3	3.9%	6.1	-14.3	-0.4	-3.3	3.1%
Oc1ccc(-c2n[nH]c(=S)n2Cc2ccccc2)cc1	-4.3	-9.1%	-5.6	7.7	-2.8	-0.3	1.6%
O=C(Nc1nc2ccccc2s1)Nc1ccc(F)cc1F	-1.0	3.2%	0.8	-3.7	3.5	3.0	2.8%
CCOC(=O)[C@]12CCC=C1N(Cc1ccccc1)C(=O)[C@H](CC(=O)N1CCOCC1)C2	x	x	x	x	0.9	5.4	0.1%
COc1cccc(C(C(=O)NC2CCCC2)N(C(=O)CNC(=O)c2ccco2)c2cccnc2)c1 (stereo not given)	0.9	10.2%	-1.6	-9.0	4.5	-4.1	0.2%
CCSc1nnc(NC(=O)CSc2nc3c(c(=O)n2CCOC)SC(C)C3)s1 (stereo not given)	-5.0	15.6%	-9.3	8.9	-2.5	-3.4	4.1%
Clc1ccc(SCCCCn2ccnc2)cc1	-0.9	-17.2%	11.6	-34.8	-7.7	-9.8	0.2%
COc1cccc(C(=O)NCCn2ccc3ccccc32)c1	-1.5	7.8%	-1.4	-14.5	2.8	-2.6	-0.1%
COc1ccccc1N1CCN(C(CNS(=O)(=O)c2ccc(C)cc2)c2cccnc2)CC1 (stereo not given)	-1.5	8.9%	-9.5	-6.7	-7.3	-0.5	1.4%
O=C(Nc1cccc(F)c1)/C(=C\c1cccnc1)NC(=O)c1cccs1	-2.5	21.8%	-11.6	-0.6	5.1	7.2	6.7%
CCOc1ccccc1NC(=O)NCc1ccccc1F	-1.3	19.0%	-14.1	-3.2	5.4	x	-0.1%
COc1ccc(N2CCN(C(=O)COC(=O)CCS(=O)(=O)c3ccc(C)cc3)CC2)cc1	-3.9	x	1.8	-4.0	0.7	-6.4	-1.0%
COC(=O)N/N=C(C)/C=C/c1ccccc1	-6.1	x	-7.3	x	-2.6	-5.3	-6.0%
O=C(NCCCc1ccccc1)c1cccc(NC(=O)C2CC2)c1	-2.8	x	-13.5	x	0.5	1.9	-0.2%
O/N=C1\CC2(Cc3nonc31)OCCO2	-1.0	2.6%	7.8	-2.7	6.9	-2.3	-0.5%
O=C(Nc1ccccc1)/C(=C/c1ccccc1)NC(=O)c1ccco1	3.5	16.5%	13.9	4.0	8.6	x	-0.4%
COC(=O)c1[nH]c2ccc(Br)cc2c1NC(=O)CN1CCN(C2CCCCC2)CC1	3.1	2.0%	-22.9	-3.1	-2.5	-2.5	-3.6%
O=[N+]([O-])c1cc(CN2CCN(c3cccc(C(F)(F)F)c3)CC2)c2cccnc2c1O	0.1	10.0%	-23.4	u	-69.9*	-89.5*	4.2%
O=C(CSc1oc(-c2cccs2)nc1S(=O)(=O)c1ccccc1)NC1CCCCC1	-1.6	39.8µM*	-9.4	-3.5	-1.1	-7.9	-4.1%[38.3 µM]
O=S(=O)(CCNCc1ccccc1)NC1CCCCC1	-2.5	x	-17.3	x	1.8	0.5	0.0%
c1ccc2c(-c3nnc4n3CCCCC4)cc(-c3ccncc3)nc2c1	-2.2	7.0%	-11.2	-10.2	-3.8	-9.9	0.1%
OCC[C@H]1C[C@@H](O)[C@H](O)[C@@]2(OCc3ccccc32)O1	-2.1	x	-32.9	15.0	7.1	-2.9	-0.3%
CCCCc1ccc(NC(=O)c2ccc(N(C)S(C)(=O)=O)cc2)cc1	-0.5	-4.1%	-4.9	-39.4	14.4	7.4	6.4%
CC(C)C(NS(=O)(=O)c1ccc2c(c1)oc(=O)n2C)C(=O)N1CCN(Cc2ccccc2)CC1 (stereo not given)	-5.7	-5.1%	-14.4	x	-5.6	-0.2	1.2%
CN1CCN(C(=O)c2cc(-c3ccccc3)on2)CC1	-1.5	6.8%	-9.3	-0.3	5.0	-1.9	3.6%[38.3 µM]
CCCC(=O)c1c(C)c2ccccc2n1C	-6.4	0.4%	-4.4	-1.2	15.5	11.6	3.5%
COC(=O)CSc1nc2cc(C)cc(C)c2cc1C#N	-3.3	13.8%	-21.1	15.4	-1.8	0.3	4.9%
Nc1ncnc2c1ncn2[C@@H]1O[C@H](CNCc2ccc(-n3cccn3)cc2)[C@@H](O)[C@H]1O	2.7	x	0.7	x	-1.9	-3.9	-0.3%
O=C(NCc1ccc(Cl)cc1)c1nccnc1CO	0.7	-2.0%	-5.3	-0.2	-19.4	1.8	0.6%
COc1ccc(S(=O)(=O)Nc2nc(C(F)(F)F)cs2)cc1	-0.3	1.3%	-20.5	7.9	7.7	7.8	3.0%
CCCC(C(=O)NC(C)(C)C)N(CCN1CCOCC1)C(=O)CNS(=O)(=O)c1ccccc1 (stereo not given)	-4.8	25.4%	0.9	-8.6	-4.2	9.2	0.4%
O=C(c1ccc(S(=O)(=O)c2ccccc2Cl)c([N+](=O)[O-])c1)N1CCN(Cc2ccccc2)CC1	u	15.3%	77.9*	7.3	-24.4	1.1	-0.1%
Cc1cc(C)c(C#N)c(Sc2ccc(N)cc2)n1	0.5	0.2%	-7.6	-8.7	2.2	9.6	0.4%
CN(c1ccccc1C(=O)Nc1cccc(Br)c1)S(=O)(=O)c1ccccc1	-5.3	13.5%	-3.8	-4.3	-1.3	-3.8	2.7%
COc1ccc(CN(C)S(=O)(=O)c2c(C)noc2C)cc1OC	-1.2	x	-0.3	-12.5	8.2	-2.8	0.1%
COc1cc(C(C)=O)ccc1OCC(=O)N1CCC(Cc2ccccc2)CC1	-0.3	x	-5.2	x	-7.8	-2.1	0.1%
COc1n[nH]c2nncnc12	-2.0	7.3%	-12.4	-4.9	-1.2	1.5	-1.1%
O=C(O)c1ccc(CNC(=O)c2ccc3c(c2)C(=O)N(Cc2cccnc2)C3=O)cc1	-5.7	8.5%	-9.2	21.3	0.0	0.0	0.4%
CC(C)(C)OC(=O)C[C@@H]1C/C=C\C[C@@H](CC(=O)N[C@H](CO)Cc2ccccc2)C(=O)N2CCC[C@@H]2COC1=O	-4.4	x	1.2	x	-1.3	8.4	1.9%
Cc1ccc(Nc2c3c(nc4ncnn24)CCC3)cc1	-2.8	6.6%	-9.5	28.6	-0.5	1.3	-3.5%[38.3 µM]
O=C(Nc1cccc(Cl)c1)Nc1cccc(C(=O)O)c1	-4.5	7.3%	-9.1	16.9	-7.2	-2.3	-0.4%
Cc1ccc(-c2ccc(/C=C3/NC(=O)NC3=O)o2)cc1[N+](=O)[O-]	-2.1	u	-5.1	6.3	u	u	-1.2%
